PABP polyA inh: blocks human PABP binding to poly(A) RNA. hit rate 1% among 290,000. inhibition, % at 35 µM. fluorescence polarization. P11940;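 active = 50% or more with normal probe brightness, or confirmed in later tests; inconclusive = above 50% with abnormal brightness, or retests that disagree; inactive = below 50% or failed in later tests; about a fifth of its hits are not listed in these tables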;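 also: calls also rest on retests at 20 µM and on dose response follow-up; controls were probe without protein and protein plus probe with vehicle; some compounds called inactive have numbers as strong as hits; many hits fall short of the cut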
Target sequence (P11940 whole entry, looked up): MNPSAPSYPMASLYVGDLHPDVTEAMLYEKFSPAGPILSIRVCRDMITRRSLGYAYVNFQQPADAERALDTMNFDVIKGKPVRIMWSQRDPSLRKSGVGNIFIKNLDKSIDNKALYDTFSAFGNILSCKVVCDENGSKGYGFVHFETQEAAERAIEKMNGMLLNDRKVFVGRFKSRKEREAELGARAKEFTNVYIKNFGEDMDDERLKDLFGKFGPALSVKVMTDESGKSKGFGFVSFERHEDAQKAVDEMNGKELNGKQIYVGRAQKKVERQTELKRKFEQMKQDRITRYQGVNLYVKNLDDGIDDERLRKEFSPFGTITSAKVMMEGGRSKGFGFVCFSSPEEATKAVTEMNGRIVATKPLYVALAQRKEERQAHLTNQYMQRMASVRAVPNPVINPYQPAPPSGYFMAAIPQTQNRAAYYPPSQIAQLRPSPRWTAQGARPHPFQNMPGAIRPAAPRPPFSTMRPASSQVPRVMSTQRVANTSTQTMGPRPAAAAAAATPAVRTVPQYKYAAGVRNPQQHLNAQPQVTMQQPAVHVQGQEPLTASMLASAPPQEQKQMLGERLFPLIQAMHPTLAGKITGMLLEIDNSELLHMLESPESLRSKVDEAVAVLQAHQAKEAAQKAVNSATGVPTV
eIF4H inh: inhibitors of RNA binding by human eIF4H. Q15056. eIF4H fluorescence polarization binding assay. inhibition, % at 35 µM. hit rate 0.94% among 290,000;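 active = 50% or more with normal probe brightness, or confirmed in later tests; inconclusive = above 50% with abnormal brightness, or retests that disagree; inactive = below 50% or failed in later tests; about a fifth of its hits are not listed in these tables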;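 also: calls also rest on retests at 20 µM and on dose response follow-up; 0% = protein and probe with vehicle and 100% = probe without protein; strong numbers were not always called active; many hits fall short of the cut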
CSC inhib: cancer stem cell inhibition. cancer stem cell-like cells viability, luminescence. AID 2717. inhibition, % at 7.5 µM. hit rate 1.1% among 300,000;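 active = mean at 75% or more and at least half the replicates too; inconclusive = mean and replicates disagree; tested in HMLE shEcad cells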;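 also: 0% = median of negative and 100% = median of positive control wells; the first replicate is given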
Yeast UUG start: modulators of start codon recognition fidelity in yeast; hit rate 0.13% among 350,000; AID 602363; S. cerevisiae UUG-firefly luciferase reporter, luminescence/redox ratio; activity score, % at 18.7 µM;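 active = replicate mean at a twofold rise or more, about +100% in these data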;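 also: firefly luciferase made from a UUG start codon reports start codon fidelity; reporter light over untreated wells divided by growth signal over untreated wells; some hits fall short of that in this replicate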
Rce1 inh: yeast Ras-converting enzyme inhibition; yeast membranes, quenched prenylated peptide cleavage fluorescence; calls only; hit rate 0.27% among 290,000; AID 2563;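 active = fall in fluorescence gain of 50% or more versus controls, with final raw signal at or below 3038400; inconclusive = same 50% fall but final raw signal above 3038400; inactive = fall in fluorescence gain under 50%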;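 also: plate controls were neutral control wells for no effect and wells lacking membranes for full effect; tested at 10 µM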
Target sequence (Q03530 whole entry, looked up): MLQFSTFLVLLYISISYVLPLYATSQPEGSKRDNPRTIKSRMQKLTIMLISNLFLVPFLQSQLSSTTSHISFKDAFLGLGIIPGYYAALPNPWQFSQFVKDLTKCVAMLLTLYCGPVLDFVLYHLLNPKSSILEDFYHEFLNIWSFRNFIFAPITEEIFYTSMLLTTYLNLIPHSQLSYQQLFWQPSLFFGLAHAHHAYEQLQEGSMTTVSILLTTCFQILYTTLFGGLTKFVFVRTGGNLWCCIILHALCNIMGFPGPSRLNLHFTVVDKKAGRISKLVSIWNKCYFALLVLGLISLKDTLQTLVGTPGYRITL
MT1-MMP act inh: inhibitors of human MT1-MMP activation. hit rate 0.061% among 360,000. AID 651647. GFP/RFP ratio change, % at 20 µM. P50281. HT1080 RFP-PRO-GFP cells, GFP/RFP ratio fluorescence, overnight; percent of plate control window, DMSO zero;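 active = GFP/RFP ratio change of at least 30% with cell ATP level not reduced by more than half and red fluorescence within 50% of control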; also: strong numbers were not always called active
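Assay system – RFP-PRO-GFP reporter HT1080 cells · Compound dosing – single dose of 20 µM compound, 1% DMSO final · Incubation – overnight compound exposure at 37 °C · Measure – GFP/RFP fluorescence ratio · Benchmarks – DMSO wells and RFP-L50D-GFP cells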
HIV Env fusion: HIV envelope-mediated fusion inhibition. AID 651610. inhibition, % at 12.3 µM. HeLa-JRFL Env/CEM21 cell fusion, luciferase. hit rate 1.1% among 360,000;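 active = mean replicate inhibition score of at least 50 and every replicate individually at or above 50; inconclusive = only one of the two criteria met; inactive = mean below 50 and not all replicates reaching 50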;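 also: 0% = plate neutral controls and 100% = maraviroc near 300 nM; one replicate is shown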
eIF4H inh retest: second read-out of eIF4H inh, no call of its own (marks repeat the call); inhibition, %; compound at 20 µM; confirmation average;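 mean of two retest wells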
PABP polyA inh retest: also measured in PABP polyA inh; calls as there; inhibition, %; compound at 20 µM; confirmation repeats;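 mean of two retest wells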
MT1-MMP act inh RFP: also measured in MT1-MMP act inh; calls as there; RFP signal change, %; measured here: RFP expression control read;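 0 = vehicle wells; hits needed this value within 50% of zero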
* hit, by the source's call; i = inactive; ? = inconclusive; / = not tested or not shown. These rows are one share of the data. The share of hits here may be higher or lower than overall.

SMILES	PABP polyA inh	eIF4H inh	CSC inhib	Yeast UUG start	Rce1 inh	MT1-MMP act inh	MT1-MMP act inh RFP	HIV Env fusion	others
CC1CN(C(=S)Nc2ccc(Cl)cc2)CC(C)O1 (centres undefined)	0	-6	-1	-18	i	6	3	0
OCCCNc1nc(-c2ccccc2)c2cc(Br)ccc2n1	2	-3	?	-15	i	-6	-1	26
C=CCNC(=O)c1ccc2c3n(nc2c1)-c1ccccc1CO3	-9	-4	14	-64	i	5	-4	-134
O=C(NCCN1CCOCC1)Nc1ccccc1	0	3	-10	-5	/	-10	2	-76
CC(=O)Nc1ccc(S(=O)(=O)N2CCN(c3ccc([N+](=O)[O-])cc3)CC2)cc1	-1	1	6	16	i	0	-21	1
c1ccc(-c2nc3c([nH]2)CCc2nonc2-3)cc1	4	3	10	-12	i	0	2	25
O=C1CCc2nc3ccccc3c(=O)n2N1	-3	4	/	2	i	2	3	/
CCOC(=O)N1CCN(C(=O)CCS(=O)(=O)c2cc3c(cc2Cl)NC(=O)CO3)CC1	-7	-7	0	-14	i	9	8	5
CCn1c(CNc2nc(-c3ccccc3)cs2)nnc1SCC(=O)NCc1ccco1	-6	-3	/	/	i	0	3	/
CCc1c(C)c2ccc(OCC(=O)NCC3CCC(C(=O)O)CC3)c(C)c2oc1=O (centres undefined)	3	-8	-6	-2	i	3	0	/
COc1ccccc1NC(=O)C(C)NS(=O)(=O)c1ccc(F)cc1 (centres undefined)	0	-2	-1	-18	i	-4	1	/
CCOc1nc(Nc2ccc(OC)cc2OC)nc(OCC)n1	1	-3	-12	-20	i	-3	-1	-24
O=C(NCc1ccccc1)C(c1ccco1)N(C(=O)c1ccccn1)c1ccccc1 (centres undefined)	-6	-1	-8	-14	i	0	4	8
COc1ccc(Cn2c(CCC(=O)Nc3ccc(C)cc3)nc3cccnc32)cc1	-7	-10	-2	-3	i	3	-5	-12
CC1CCN(S(=O)(=O)c2ccc(NC(=O)Cc3ccc(S(=O)(=O)N4CCOCC4)s3)cc2)CC1	/	/	4	-13	i	-10	-15	61*
CCN(Cc1ccccc1)C(=O)C1CCN(Cc2ccc(SC)cc2)CC1	-2	5	9	/	i	-2	-3	9
CCOc1ccc(OCCC(=O)OCC(=O)Nc2cc(OCC)c(N3CCOCC3)cc2OCC)cc1	/	/	/	-14	i	7	7	5
COc1ccc(NC(=O)C(=O)NNC(=O)c2cccs2)cc1	0	-7	-10	-18	i	-3	5	8
CC(C)(CNc1ccc(C(F)(F)F)cc1[N+](=O)[O-])N1CCOCC1	10	7	15	11	i	4	-2	20
COc1cccc(CNC(=O)CN2C(=O)COc3ccc(S(=O)(=O)N4CCC(C)CC4)cc32)c1	/	/	-1	4	i	-5	-5	-9
O=C(NCc1ccc(Cl)cc1)c1ccc(-c2ccccc2C(F)(F)F)o1	0	-4	44	-11	i	1	-1	10
COC(=O)C1=C(C)N(Cc2ccccc2)C(=NCc2cccc(Cl)c2)N[C@H]1c1ccccc1	/	/	122*	14	/	-3	-1	/
O=C(CCNS(=O)(=O)c1ccccc1)N1CCN(C(c2ccccc2)c2ccccc2)CC1	-5	-4	-19	1	i	-12	1	7
COc1cccc(CN(C)C(=O)CCN=C2NS(=O)(=O)c3ccccc32)c1OC	/	/	-7	-12	/	0	-5	/
Cc1cc(Cl)c(OCCCN(C)C)c(Br)c1	8	0	-24	-2	i	-8	-3	23
COc1ccc([N+](=O)[O-])cc1N(CC(=O)N1CCOCC1)S(C)(=O)=O	-1	2	0	/	i	-2	5	5
O=C(O)COc1ccccc1C(Nc1ccccn1)c1cc(Cl)c2cccnc2c1O (centres undefined)	6.4*	54*	19	/	i	3	8	-28	eIF4H inh retest=98*;PABP polyA inh retest=84*
COc1ccccc1-c1nnc(SCC(=O)N2CCCCC2)o1	-1	1	-7	-13	i	-4	-3	-12
O=C(COC(=O)C1CC(=O)N(Cc2ccccc2)C1)Nc1ccc2c(c1)OCO2 (centres undefined)	-3	0	-8	-15	i	2	3	-31
COc1cc(/C=N/N2CCN(Cc3ccc(C)cc3)CC2)cc(OC)c1O	11	2	/	-4	i	8	-1	-1
COc1ccc(/C=N/Nc2nc3ccccc3c(=O)n2-c2ccccc2)cc1OC	4	-5	0	/	i	1	-3	-12
O=C(CC(Nc1ccccc1)c1ccc(F)cc1)c1ccccc1 (centres undefined)	5	4	-4	/	i	7	-4	/
COc1ccccc1NC(=O)CS(=O)(=O)c1cn(CC(=O)N2CCCC2)c2ccccc12	0	10	/	3	i	5	-1	-6
CCc1c(C)sc(NC(=O)/C=C/c2ccc3c(c2)OCO3)c1C(=O)OC	-4	-2	97*	-5	i	-1	2	-14
COc1ccc2nc(NC(=O)CCc3cc(OC)c(OC)c(OC)c3)sc2c1	2	3	3	/	i	-3	-4	-15
CCC1N=C(SC)NC(C)=C1C(=O)c1ccccc1 (centres undefined)	-13	-5	2	/	i	4	-1	-5
CCN(c1ccccc1)S(=O)(=O)c1ccc(Cl)c(NC(=O)CSc2n[nH]c(N)n2)c1	-23	-16	-4	/	i	6	2	-18
CC1(C)CC(=O)C(C2C3=C(CC(C)(C)CC3=O)Oc3ccccc32)=C(O)C1 (centres undefined)	-10	4	-1	-11	i	5	6	/
CCC1SC(N)=NC1=O (centres undefined)	-9	5	-6	-20	i	1	4	/
CC(Cc1ccccc1)NC(=O)c1ccc([N+](=O)[O-])cc1 (centres undefined)	2	-7	-1	/	i	2	-2	/
COc1cc(OC)c(C(=O)OCC(=O)NC2CCCC2)cc1OC	-1	-8	-12	-18	i	2	3	6
Fc1ccc(-c2nc3c4ccccc4ccn3c2CC2CCCCC2)cc1	/	/	/	56	/	-6	-1	-8
Cc1ccc(OCC(=O)Nc2ccccc2F)cc1	/	/	-3	-33	i	2	1	-77
O=C(COC(=O)c1ccc(S(=O)(=O)N2CCCCC2)cc1)NC1CCCCC1	/	/	/	-1	/	5	7	-14
COc1ccc(CNC(=O)Cn2cccc2C(=O)c2ccccc2C)cc1	11	-4	/	-13	i	-1	-4	-19
COc1ccc(CNC(=O)CN2C(=O)NC(C)(c3cccc4ccccc34)C2=O)cc1OC (centres undefined)	5	-9	-4	30	i	1	-1	10
Cc1[nH]n(-c2cccc(Cl)c2)c(=O)c1C=NCc1ccco1	8	-1	-5	/	/	2	5	-32
Cc1ccc(S(=O)(=O)N(C)C)cc1NC(=O)CN1C(=O)NC2(CCCCCCC2)C1=O	-1	34	-1	1	i	7	3	-11
Cc1cc(C)n(C(N)=NC(=O)c2ccccc2)n1	/	/	/	-4	/	-4	-2	-2
C/C(=N\Nc1nnc(C)c(=O)[nH]1)C(=O)O	7	17	3	-21	i	-2	-2	20
Cc1cc(OCC(=O)N2CCOCC2)c(C(C)C)cc1Cl	0	5	11	-10	i	3	2	/
CC(C)(C)Nc1c(-c2cccs2)nc2ccccn12	0	-4	-11	/	i	-5	-4	21
O=C1c2ccccc2CN1CCNS(=O)(=O)c1ccc2ccccc2c1	-9	-1	-6	-8	i	5	3	/
OCC1OC(n2cnc3c(NCCc4ccccc4)ncnc32)C(O)C1O (centres undefined)	/	/	30	-14	i	0	6	6
COc1ccc2c(C)cc(N3CCOCC3)nc2c1	-5	-6	-16	-11	i	-5	-7	/
Fc1ccc(COc2cccc(CNCc3ccncc3)c2)cc1	4	-5	-6	/	i	-6	-20	15
O=C(Nc1cc(S(=O)(=O)N2CCCCCC2)ccc1OCC(F)(F)F)C1CCC1	0	-6	/	-24	i	2	1	-13
O=S(=O)(Nc1ccc(S(=O)(=O)N2CCCCC2)cc1)c1cccs1	4	-19	-11	-2	i	-6	-7	-1
Cc1cc(F)ccc1-c1cc(C(=O)NCc2ccccc2)[nH]n1	/	/	/	-9	/	1	1	-10
O=C(CC1Sc2ncnn2C1=O)Nc1ccc(Br)cc1 (centres undefined)	-15	-4	18	-19	i	2	7	7

Additional structures.
SMILES	PABP polyA inh	eIF4H inh	CSC inhib	Yeast UUG start	Rce1 inh	MT1-MMP act inh	MT1-MMP act inh RFP	HIV Env fusion	others
Cn1c(=O)cc(SCC(=O)N2CCN(C(=O)c3ccco3)CC2)c2ccccc21	6	-1	7	/	i	6	7	-8
CCOC(=O)C(CC)Sc1cc(C)nc2ccc(OC)cc12 (centres undefined)	-12	-4	2	1	i	1	-4	12
CC(=O)C(C(c1ccccc1)c1c[nH]c2ccccc12)[N+](=O)[O-] (centres undefined)	3	-4	71	-7	i	-3	-1	-21
C=CCc1ccc(OCCCCN2CC(C)CC(C)C2)c(OC)c1 (centres undefined)	8	11	55	6	i	4	3	22
CC1=C(C#N)C(NC(=O)c2ccccc2Cl)(C(F)(F)F)C(=O)N1 (centres undefined)	-13	-6	-8	-5	i	2	4	-7
COc1cccc(/C=C/C(=O)OCC(=O)c2ccc[nH]2)c1	/	/	/	-20	/	1	10	-4
Cc1ccc(C(=O)N2CCN(CCNC(=O)C(=O)NC(C)C)CC2)cc1	-2	-1	11	/	i	-2	6	18
COc1ccccc1/C=C/[C@@H]1C[C@H]2CN(Cc3cccc(Cl)c3)C(=O)[C@]23CCCN13	-6	-14	1	/	i	-9	-3	4
COc1cc(C(=O)N/N=C/c2sc(N3CCOCC3)nc2-c2ccccc2)cc(OC)c1OC	-1	-1	-14	/	i	-1	0	0

Structures listed so far with fluorine:
SMILES	PABP polyA inh	eIF4H inh	CSC inhib	Yeast UUG start	Rce1 inh	MT1-MMP act inh	MT1-MMP act inh RFP	HIV Env fusion	others
COc1ccccc1NC(=O)C(C)NS(=O)(=O)c1ccc(F)cc1 (centres undefined)	0	-2	-1	-18	i	-4	1	/
CC(C)(CNc1ccc(C(F)(F)F)cc1[N+](=O)[O-])N1CCOCC1	10	7	15	11	i	4	-2	20
O=C(NCc1ccc(Cl)cc1)c1ccc(-c2ccccc2C(F)(F)F)o1	0	-4	44	-11	i	1	-1	10
O=C(CC(Nc1ccccc1)c1ccc(F)cc1)c1ccccc1 (centres undefined)	5	4	-4	/	i	7	-4	/
Fc1ccc(-c2nc3c4ccccc4ccn3c2CC2CCCCC2)cc1	/	/	/	56	/	-6	-1	-8
Cc1ccc(OCC(=O)Nc2ccccc2F)cc1	/	/	-3	-33	i	2	1	-77
Fc1ccc(COc2cccc(CNCc3ccncc3)c2)cc1	4	-5	-6	/	i	-6	-20	15
O=C(Nc1cc(S(=O)(=O)N2CCCCCC2)ccc1OCC(F)(F)F)C1CCC1	0	-6	/	-24	i	2	1	-13
Cc1cc(F)ccc1-c1cc(C(=O)NCc2ccccc2)[nH]n1	/	/	/	-9	/	1	1	-10
CC1=C(C#N)C(NC(=O)c2ccccc2Cl)(C(F)(F)F)C(=O)N1 (centres undefined)	-13	-6	-8	-5	i	2	4	-7

Bioassay records: PubChem BioAssay, several laboratories
